KCNQ2 block – KCNQ2 potassium channel inhibitors, primary screen, cell-based, CHO-K1, FluxOR thallium flux, B-score (AID 2156); B-score at 10 µM; actives 1.1% (n = 310,000); 20 min; active compounds read low; only compounds with negative scores are shown here; some inactives read as strong as hits; O88943;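 active = fluorescence ratio B-score at most minus 3 library SDs, with starting brightness B-score within 2 library SDs, cut at about -5.5 in these data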
Target sequence (O88943 whole entry, looked up): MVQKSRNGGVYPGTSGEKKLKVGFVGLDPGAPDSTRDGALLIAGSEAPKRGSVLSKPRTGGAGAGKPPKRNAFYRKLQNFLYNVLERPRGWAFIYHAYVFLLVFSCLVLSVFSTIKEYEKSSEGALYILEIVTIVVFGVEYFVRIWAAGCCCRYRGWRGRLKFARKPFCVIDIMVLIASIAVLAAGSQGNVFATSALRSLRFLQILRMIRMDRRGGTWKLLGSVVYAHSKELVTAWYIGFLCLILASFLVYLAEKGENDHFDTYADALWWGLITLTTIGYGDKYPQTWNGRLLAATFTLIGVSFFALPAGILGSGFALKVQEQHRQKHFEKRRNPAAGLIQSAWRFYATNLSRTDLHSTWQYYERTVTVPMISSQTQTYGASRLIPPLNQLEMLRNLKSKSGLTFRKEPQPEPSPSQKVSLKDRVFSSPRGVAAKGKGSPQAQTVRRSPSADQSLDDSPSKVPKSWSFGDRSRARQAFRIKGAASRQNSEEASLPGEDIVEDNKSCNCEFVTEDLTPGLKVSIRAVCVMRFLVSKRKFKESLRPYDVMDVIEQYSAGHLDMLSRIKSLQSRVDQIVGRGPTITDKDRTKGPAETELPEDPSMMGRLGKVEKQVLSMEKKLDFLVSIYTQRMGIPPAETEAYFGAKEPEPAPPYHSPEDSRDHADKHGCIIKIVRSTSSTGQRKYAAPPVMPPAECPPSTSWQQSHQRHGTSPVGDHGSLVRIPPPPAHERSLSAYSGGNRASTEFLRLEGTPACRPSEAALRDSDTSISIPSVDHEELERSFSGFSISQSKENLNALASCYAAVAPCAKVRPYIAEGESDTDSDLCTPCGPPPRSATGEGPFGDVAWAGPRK
KCNQ2 block baseline – also measured in KCNQ2 block; calls as there; B-score; measured here: initial fluorescence intensity artifact check;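 brightness before thallium and not channel activity; 0 = typical well and far values either way flag optical interference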
Numbers without * were called inactive; i = inactive.

Start of the data: the first 5 compounds (preview)
entry	SMILES	KCNQ2 block	KCNQ2 block baseline
1	CCOC(=O)Nc1ccc(S(=O)(=O)N(C)C(C)C)cc1	i	-0.15
2	CCN(CC)C(=O)c1sc(NC(=O)c2cccs2)c(C#N)c1C	i	2.2
3	Cc1nc(-c2ccccc2)[nH]c(=O)c1Oc1ccc(Cl)cc1Cl	i	0.06
4	Cn1cnnc1SCc1ccc(C#N)cc1	i	0.97
5	Cc1nn2c(N3CCN(CCO)CC3)c3c(nc2c1-c1ccccc1)CCCC3	i	1.1

All compounds of this part, from the first entry:
entry	SMILES	KCNQ2 block	KCNQ2 block baseline
1	CCOC(=O)Nc1ccc(S(=O)(=O)N(C)C(C)C)cc1	i	-0.15
2	CCN(CC)C(=O)c1sc(NC(=O)c2cccs2)c(C#N)c1C	i	2.2
3	Cc1nc(-c2ccccc2)[nH]c(=O)c1Oc1ccc(Cl)cc1Cl	i	0.06
4	Cn1cnnc1SCc1ccc(C#N)cc1	i	0.97
5	Cc1nn2c(N3CCN(CCO)CC3)c3c(nc2c1-c1ccccc1)CCCC3	i	1.1
6	Cc1ccc(SCC(=O)OCC(=O)NCc2cccs2)cc1C	i	0.22
7	C=CCn1c(C)nnc1SCC(=O)NC1CCCCC1	i	0.62
8	CC1=C(C(=O)OCc2ccccc2)C(c2ccc(-c3ccccc3)cc2)NC(=O)N1CCCC(=O)O (configuration not stated)	i	0.43
9	CCOC(=O)NCc1ccc(Cl)c(Cl)c1	i	0.78
10	CN1C2C=C(N(CCc3c[nH]c4ccccc34)C(=O)c3ccc(Cl)cc3)CC1CC2 (configuration not stated)	i	0.96
11	CC1=C(C)CC(C(=O)Nc2ccc(C(N)=O)cc2)C(C(=O)O)C1 (configuration not stated)	i	0.31
12	NNC(=O)c1[nH]c2ccc(Br)cc2c1-c1ccccc1	i	-0.06
13	COc1ccc(C(=O)C2CCCN(C(=O)c3cccc(Cn4cccn4)c3)C2)cc1F (configuration not stated)	i	0.48
14	COc1cccc(OC)c1C(=O)NNC(=O)c1cccc(COc2ccc3c(c2)CCC3)c1	i	-2
15	CC(=O)c1ccc(OC(=O)c2ccc(Br)o2)cc1	i	0.9
16	Cc1cccc(N2C(=O)c3cccc(Oc4ccc(Cl)cc4)c3C2=O)c1	i	-2.1
17	CC1CCCN(S(=O)(=O)c2ccccc2[N+](=O)[O-])C1 (configuration not stated)	i	0.73
18	O=C(CSc1nc2ccccc2c(=O)[nH]1)Nc1ccc(C(=O)O)cc1	i	0.13
19	O=C(CNC(=O)c1ccccc1)c1ccccc1	i	0.27
20	Cc1cccc(C(=O)N2CCN(c3ncnc4c3cnn4-c3ccccc3)CC2)c1	i	2.8
21	O=S(=O)(O)c1cccc2cccc(Nc3ccccc3)c12	i	-0.45
22	CN1CCN(C(=O)/C(=C/c2cn(S(=O)(=O)N(C)C)c3ccccc23)NC(=O)c2ccccc2F)CC1	i	0.68
23	Cc1noc(C)c1C(=O)N1CCCC(Nc2ccc(C(C)C)cc2)C1 (configuration not stated)	i	0.65
24	CCC(Oc1ccccc1)C(=O)Nc1nc2ccccc2[nH]1 (configuration not stated)	i	1.1
25	CCc1ccccc1Cn1c(=O)oc2cccnc21	i	-0.17
26	COc1ccccc1/C=C1\CCC(C2CCCC2)C1=O (configuration not stated)	i	1.6
27	COc1ccc(NC(=O)CSc2nnc(CNC(=O)c3ccco3)o2)c(OC)c1	i	0.54
28	CCOc1ccc2[nH]c3c(NCCC(C)C)ncnc3c2c1	i	-3.1
29	c1csc(-c2nc3ccccn3c2NC2CCCCC2)c1	i	0.96
30	O=C(Nc1cccc2c1CCCC2)C1CCN(C(=O)NC2CCCCC2)CC1	i	2.3
31	C=CCn1c(SCC(=O)Nc2cccnc2Cl)nnc1-c1ccc(C(C)(C)C)cc1	i	0.15
32	CCc1ccc(C(C(=O)NC2CCCCC2)N(C(=O)c2csnn2)C2CC2)cc1 (configuration not stated)	i	1
33	Cc1cccc(N(C(=O)Cc2cccs2)C(C(=O)NCc2ccco2)c2ccncc2)c1 (configuration not stated)	i	-0.71
34	COC(=O)CSc1nnc(-c2ccc(S(=O)(=O)N3CCCCC3)cc2)o1	i	-0.03
35	COC(=O)c1c(NC(=O)COC(=O)CCNS(=O)(=O)c2ccccc2)sc(C)c1C	i	1
36	CCOc1ccc(C)cc1-n1nc2ccccc2n1	i	0.28
37	CCN1CCC2(CC1)N=C(c1ccc(F)cc1)C(=S)N2C(=O)c1ccc(C(C)(C)C)cc1	i	0.16
38	COc1ccccc1NC(=O)C1C2C=CC(O2)C1C(=O)O (configuration not stated)	i	-0.7
39	O=C(Cn1c(=O)oc2ccccc21)Nc1ccccc1N1CCOCC1	i	0.26
40	Cc1ccc(S(=O)(=O)NNC(=O)C2COc3ccccc3O2)cc1 (configuration not stated)	i	-0.65
41	Cc1nnc(N2C(=O)C(O)=C(C(=O)c3ccco3)C2c2ccc(C(C)(C)C)cc2)s1 (configuration not stated)	i	15
42	Fc1cccc(CN2CCC(Cc3ccccc3)CC2)c1	i	-0.86
43	COc1cccc(N2CCN(c3nc(-c4ccccc4C)cc(=O)[nH]3)CC2)c1	i	0.36
44	Cc1onc(-c2ccccc2)c1NC(=O)N(Cc1ccccc1)C(C)C	i	-0.43
45	O=C(COC(=O)c1ccc(Cl)c(S(=O)(=O)N2CCCC2)c1)NC1CCCC1	i	-1.3
46	NC(=O)NC(=O)C(Nc1ccc(N2CCCCC2)cc1)c1ccccc1 (configuration not stated)	i	-0.55
47	O=C(CS(=O)(=O)Cc1ccccc1)NCc1ccccc1Cl	i	0.64
48	Cc1ccc(-c2cc(C(=O)Nc3ccc(S(=O)(=O)N4CC(C)OC(C)C4)cc3)[nH]n2)c(O)c1 (configuration not stated)	i	-0.25
49	CC(=O)C(N=Nc1ccccc1)(Sc1nnc(-c2ccccc2)n1-c1ccccc1)C(=O)Nc1ccccc1 (configuration not stated)	i	0.66
50	OC(COc1ccc2cc(Br)ccc2c1)Cn1ccnc1 (configuration not stated)	i	1.7
51	COc1cc(C2CC(c3ccccc3)=NN2c2ccccc2)ccc1OCC(=O)O (configuration not stated)	i	-0.79
52	COc1ccc(C(=O)N/C(=C\c2ccccc2)C(=O)NC(CCSC)C(=O)O)cc1 (configuration not stated)	i	60
53	CC(C)CCn1c(N2CCN(c3cccc(Cl)c3)CC2)nc2c1c(=O)[nH]c(=O)n2C	i	-0.23
54	Oc1c(Br)cccc1/C=N/Nc1c(F)c(F)c(F)c(F)c1F	i	-0.05
55	CCOC(=O)CNC(=O)C1c2ccccc2Oc2ccccc21	i	-0.07
56	COc1ccc(CNC(=O)C2CC(c3ccccc3C(F)(F)F)=NO2)cc1 (configuration not stated)	i	1.5
57	NC(=NCCCCCCN=C(N)/N=C(\N)Nc1ccc(Cl)cc1)/N=C(\N)Nc1ccc(Cl)cc1	i	0.02
58	O=C(/C=C/c1ccc2c(c1)OCO2)N1CCN(c2ccccc2F)CC1	i	2.4
59	COc1ccc(/C=N/Nc2ccccc2C(=O)O)cc1Cn1cc([N+](=O)[O-])cn1	i	-0.01
60	O=C1CCN(S(=O)(=O)c2ccccc2)CCN1CCOCc1ccc(Cl)cc1	i	0.1

Additional results:
entry	SMILES	KCNQ2 block	KCNQ2 block baseline
61	Cc1ccc(CN(c2ccc(C(=O)N3CCc4ccccc4C3)cc2)S(C)(=O)=O)cc1	i	0.06
62	CCC(C)N1CC23C=CC(O2)C(C(=O)OCc2ccccc2)C3C1=O (configuration not stated)	i	-0.61
63	CCC(C)[C@H](NC(=O)OC(C)(C)C)C(=O)N/N=C/c1cccc2nccnc12 (some centres not stated)	i	0.18
64	COc1cc(NS(=O)(=O)c2ccc(NC(=S)Nc3ccccc3)cc2)nc(OC)n1	i	0.68
65	CCCc1cc(=O)[nH]c(SCC(=O)Nc2ncc(S(=O)(=O)c3ccc([N+](=O)[O-])cc3)s2)n1	i	-1.9
66	S=C(NCc1ccco1)N1CCN(Cc2ccco2)CC1	i	1.7
67	c1ccc(CSc2nnnn2-c2ccccc2)cc1	i	1.1
68	COc1ccc(C2CC(c3ccccc3)=NN2c2ccccc2)c(C(=O)O)c1OC (configuration not stated)	i	-0.76
69	COc1ccc(OC)c(/C=C/C(=O)NCCc2nc3ccccc3[nH]2)c1	i	-0.63
70	CCc1ccc2c(CN(CC)Cc3nc4ccccc4c(=O)[nH]3)cc(=O)oc2c1	i	-0.25
71	O=C(Nc1ccccc1N1CCCCC1)c1ccc2nccnc2c1	i	-0.8
72	CC1(C)CC(NC(=O)c2ccncc2)CC(C)(C)N1O	i	0.13
73	C#CCOCCOCCOCCNc1nc(N2CCN(C(=O)[C@H]([C@@H](C)CC)n3cc([C@@H](N)Cc4ccc(O)cc4)nn3)CC2)nc(N2CCN(C(=O)[C@H](CCCCN)n3cc([C@@H](N)CO)nn3)CC2)n1	i	1.8
74	O=C(N=Nc1c(O)[nH]c2ccc([N+](=O)[O-])cc12)c1ccccc1[N+](=O)[O-]	i	0.08
75	CCC(C)n1c(OC)nc2c1c(=O)n(C)c(=O)n2C (configuration not stated)	i	0.29
76	COc1ccccc1N1CCN(S(=O)(=O)c2ccc3nc(-c4ccccc4)[nH]c3c2)CC1	i	0.08
77	Cc1cccc(NC(=O)CSc2nnc(CNC(=O)c3ccco3)n2C)c1C	i	-0.02
78	COc1ccc(-c2c(C)nn(-c3ccccc3)c2N)cc1	i	-0.57
79	C[C@@H](C(=O)NC1CCCCC1)N1C(=O)N2CCc3c([nH]c4ccccc34)[C@@]2(C)C1=O	i	-0.38
80	CCCCn1c(CNC(=O)C(C)(C)C)nc2ccccc21	i	-0.18
81	Cn1c(N)nc2nc(CCc3ccccc3)c(=O)[nH]c2c1=O	i	1.4
82	CCOC(=O)C1(Cc2ccccc2)CCCN(Cc2cccc(C(C)=O)c2)C1 (configuration not stated)	-6*	3.1*
83	COc1ccc(N2CCN(C(=O)C34CCC(C)(C(=O)C3)C4(C)C)CC2)cc1 (configuration not stated)	i	-0.31
84	COc1ccc(C)cc1NC1=C(Cl)C(=O)N(C2CCCCC2)C1=O	i	-0.11
85	C=CSc1sc(Cl)c(N(C)C)c1[N+](=O)[O-]	i	1.2
86	O=C(Nc1ccc([N+](=O)[O-])cc1)OCCc1ccccn1	i	-0.31
87	CNC(=S)SCCOc1ccc(C)cc1	i	-1.2
88	COc1ccc2c(c1OC)C(=O)OC2Nc1ccc(S(=O)(=O)N=C(N)N)cc1 (configuration not stated)	i	-0.28
89	CN1CCC(N(C)C(=O)NC2CCCCC2)CC1	i	-1.1
90	O=C(c1ccc2c(c1)OCO2)N(Cc1ccco1)C1(C(=O)NC2CCCCC2)CCCCC1	-7.3*	-0.36*
91	CCCC(=O)N1CCN(c2nc(CC(C)C)c3c(c2C#N)CCC3)CC1	i	0.74
92	CN1CCN(C(=O)c2cc(Cl)ccc2Cl)CC1	i	1.6
93	CCOc1ccc(N(CC(=O)NCCC2=CCCCC2)S(=O)(=O)c2ccccc2)cc1	i	3.9
94	CCOc1ccc(CNC(=O)CN2C(=O)C(c3ccccc3)Oc3cccnc32)cc1 (configuration not stated)	i	-0.82
95	COc1ccccc1NC(=O)c1cc(S(=O)(=O)N2CCCC2)cn1C	i	-1.2
96	CCC(=O)Nc1ccc(OCC2CCCO2)cc1 (configuration not stated)	i	0.57
97	O=C(COC(=O)c1ccccc1O)Nc1ncc(Cl)cc1Cl	i	0.07
98	CCN(Cc1nc(-c2ccc(C)cc2)no1)C(=O)c1ccco1	i	-0.2
99	O=C(CN1C(=O)c2ccccc2C1=O)NCc1ccncc1	i	-0.01
100	CCC(C)n1c(SCc2ccc([N+](=O)[O-])cc2)nc2ccsc2c1=O (configuration not stated)	i	-1.1
101	CCOC(=O)N1CCN(c2cc(=O)n(-c3ccc(C)cc3)c(=O)[nH]2)CC1	i	-1.3
102	Cn1c(=O)c(C(=O)NNC(=O)c2ccccc2Br)c(O)c2ccccc21	i	-0.64
103	N=C(N)SCP(=O)(c1ccccc1)c1ccccc1	i	1.1
104	Cc1cccc(NC(=O)Cc2cccs2)n1	i	2.1
105	CC(C)CC(NS(=O)(=O)c1ccc2[nH]c(=O)c(=O)[nH]c2c1)C(=O)O (configuration not stated)	i	1.8

Filtered by structure, the compounds so far with a tert-butyl group.
entry	SMILES	KCNQ2 block	KCNQ2 block baseline
31	C=CCn1c(SCC(=O)Nc2cccnc2Cl)nnc1-c1ccc(C(C)(C)C)cc1	i	0.15
37	CCN1CCC2(CC1)N=C(c1ccc(F)cc1)C(=S)N2C(=O)c1ccc(C(C)(C)C)cc1	i	0.16
41	Cc1nnc(N2C(=O)C(O)=C(C(=O)c3ccco3)C2c2ccc(C(C)(C)C)cc2)s1 (configuration not stated)	i	15
63	CCC(C)[C@H](NC(=O)OC(C)(C)C)C(=O)N/N=C/c1cccc2nccnc12 (some centres not stated)	i	0.18
80	CCCCn1c(CNC(=O)C(C)(C)C)nc2ccccc21	i	-0.18

The list goes on:
entry	SMILES	KCNQ2 block	KCNQ2 block baseline
106	CCC(C)c1ccccc1N1CC(C(=O)Nc2cccc(S(=O)(=O)N3CCOCC3)c2)CC1=O (configuration not stated)	i	1.5
107	O=C1NCCCN1Cc1ccc(F)cc1	i	-0.16
108	CCOc1ccc(C(=O)c2cc3ccc(O)cc3oc2=O)cc1	i	0.25
109	COc1ccc(-n2nc(C(=O)NCC(=O)NCCCN3CCOCC3)c3ccccc3c2=O)c(OC)c1	i	1.8
110	O=C(CSc1nnc(CNc2ccc(F)cc2)n1-c1ccccc1)N1CCOCC1	i	-0.92
111	CCOC(=O)c1c(NC(=O)COC(=O)Cn2c(C)nc3ccccc32)sc2c1CCCC2	i	1.1
112	Cc1cc(SCc2ccc(C(F)(F)F)cc2)nc(=O)[nH]1	i	0.87

These rows are one share of the data, so the mix of outcomes need not match the whole.
